# Calb biofilm kill = mixture kills Candida albicans biofilm cells. actives 0.02% (n = 120,000). C. albicans biofilm persisters + clotrimazole, fluorescence viability; primary screen in compound mixtures of four per well. AID 1242. inhibition, % at 7.6 µM;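 active means inhibition above 30.3% in the primary screen of four-compound pools, then above 30% when the compound was retested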;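 further: compounds exposed to preformed 24 h biofilms for 48 h; the number belongs to the whole pool; some results filed as inactive read as strong as hits; inactives centre near 12; 0% = biofilm with clotrimazole alone and 100% = kill control; retested singly at about 60 µM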
#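 System: C. albicans CAF4-2 wild-type biofilms; Medium: RPMI/MOPS medium, pH 7.0; Reagent: Clotrimazole, 50 µg/mL; Times: biofilm formation 24 h, compound exposure 48 h, 37 °C; Detection: 2-h Alamar Blue fluorescence, 535/590 nm excitation/emission; Evaluation: percent inhibition of biofilm viability.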
# * = called active by the depositor.
item	canonical_smiles	Calb biofilm kill
1	CC(C(=O)c1ccc(-c2ccccc2)cc1)[n+]1cccc(NC(=O)c2ccccc2)c1 (stereo not drawn)	10
2	N/C(=N\OC(=O)c1ccc(Cl)cc1)c1ccc(Cl)cc1	11
3	O=[N+]([O-])c1ccc(OCCOc2ccccc2/C=N/n2cnnc2)cc1	7
4	O=C(CNC(=S)N(CCCN1CCOCC1)Cc1cccs1)NC1CCCCC1	-12
5	O=C(O)C1=NOC(CNc2ncc(C(F)(F)F)cc2Cl)C1 (stereo not drawn)	14
6	O=C(N/C(=C/c1ccc(Br)cc1)C(=O)N1CCCC1)c1ccccc1F	7
7	Cc1nnc(N)s1	-1
8	O=C(CCCn1c(=O)[nH]c2ccccc2c1=O)N1CCN(c2ccccn2)CC1	12
9	COc1ccccc1N1CCN(/N=C/c2ccc(O)c(O)c2)CC1	-2
10	CN(C)c1ncc(S(=O)(=O)c2ccccc2)c(N)n1	7
11	Cn1c(=O)c2c(nc(N/N=C/c3ccncc3)n2Cc2ccccc2)n(C)c1=O	14
12	CCc1nc2ccccc2c(C(=O)Oc2ccc(C(=O)OC)cc2)c1C	19

# Entries shown so far that have a halogen, in the order listed:
item	canonical_smiles	Calb biofilm kill
2	N/C(=N\OC(=O)c1ccc(Cl)cc1)c1ccc(Cl)cc1	11
5	O=C(O)C1=NOC(CNc2ncc(C(F)(F)F)cc2Cl)C1 (stereo not drawn)	14
6	O=C(N/C(=C/c1ccc(Br)cc1)C(=O)N1CCCC1)c1ccccc1F	7

# Other results:
item	canonical_smiles	Calb biofilm kill
13	Cc1nc(-c2ccc(C(=O)Nc3ccc(F)cc3)cc2)cs1	12
14	Cc1cc(C)n(-c2cc(Cl)cc(Cl)c2)c(=O)c1C#N	10
15	CCCc1nn(C)c(C(=O)Nc2ccc(CC)cc2)c1Cl	1
16	COc1ccc(NS(=O)(=O)c2ccc(NC(=O)c3ccccc3Br)cc2)nn1	18
17	CN(C)c1ccc(-n2cccc2/C=C/[N+](=O)[O-])cc1	20
18	C=CCn1c(SCC(=O)NC(N)=O)nnc1-c1cc2c(s1)CCC(CC)C2 (stereo not drawn)	8
19	Cc1ccc(NCc2nc3ccccc3n2CCOc2ccccc2)cc1	10
20	COc1ccc(-c2ccc(CCC(=O)O)n2-c2ccc(O)cc2)cc1	-6
21	Cc1ccc(CNc2ncc(-c3ccccc3)n2C)o1	2
22	Cc1ccc(SCCN2CCN(C)CCC2=O)cc1	-2
23	Cc1ccsc1C1C(C#N)=C(N)Oc2n[nH]c(C)c21 (stereo not drawn)	15
24	Nc1nonc1C(=O)N/N=C/c1ccc(-c2ccc(Cl)c(C(=O)O)c2)o1	8
25	COc1ccc(C2/C=C\CN(C(=O)Nc3ccccc3)CC(=O)N2Cc2ccc(F)cc2)cc1 (stereo not drawn)	14
26	O=C(Cc1ccccc1)NCc1n[nH]c(=S)n1-c1ccc(Br)cc1	13
27	S=C1SCN(CC2CC2)CN1CC1CC1	20
28	O=S(=O)(/C=C/c1ccccc1)N1CCN(Cc2ccccc2)CC1	14
29	CCn1cc(C(=O)NC(C)C2CC3CCC2C3)cn1 (stereo not drawn)	19
30	Cc1cccc(N(C(=O)c2snc(C(N)=O)c2N)C(C(=O)NCC2CCCO2)c2cccs2)c1 (stereo not drawn)	8
31	COc1ccc(Br)cc1CN1CCN(C(=O)c2ccc(F)cc2)CC1	23
32	CCOc1cc(NC(=S)NCCCN2CCOCC2)c(OCC)cc1NC(=O)c1ccccc1C	8
33	CCCCN(CC)C(=O)CSc1nc2c(sc(=S)n2-c2ccc(OCC)cc2)c(=O)[nH]1	6
34	Cc1ccccc1N=Cc1c(O)n(-c2nccs2)c(=O)c2ccccc12	22
35	CCN1CCN(c2ccc(S(=O)(=O)N(CC)CC)cc2[N+](=O)[O-])CC1	21
36	COc1cc2c(cc1OC)CN(Cc1cc(=O)n3c(-c4ccccc4)csc3n1)CC2	14
37	CC(C)(C)NC(=O)C(c1ccc(F)cc1)N(Cc1ccco1)C(=O)Cn1nnc(-c2cccs2)n1 (stereo not drawn)	7
38	Cc1nc(=O)c(-c2ccccc2)c(C)n1Cc1ccccc1	-9
39	COc1ccc(C)cc1NC(=O)CSc1ccc(Cl)cc1	4
40	O=C1CN(C(=O)COc2ccc(Br)cc2Br)c2ccccc2N1	12
41	CCc1ccccc1NC(=O)CN(c1ccc(OC)cc1OC)S(=O)(=O)c1ccccc1[N+](=O)[O-]	37
42	O=C(CCNC(=O)c1ccccc1)Nc1ccc(F)c(Cl)c1	9
43	COc1ccc(-c2[nH]ncc2CN(C)Cc2cnccn2)c(OC)c1	1
44	CN(C)C(CN=C1NS(=O)(=O)c2ccccc21)c1ccco1 (stereo not drawn)	12
45	CC1CCCCC1NC(=O)CSc1nncn1N (stereo not drawn)	58
46	Cc1cc(C)c(NC(=O)CS)c(Cl)c1	6
47	CC(C)CC1(C)NC(=O)N(CC(=O)Nc2cccc(S(=O)(=O)N(C)c3ccccc3)c2)C1=O (stereo not drawn)	16
48	Cc1cccc(NC(=S)NCC23C=CC(O2)C2C(=O)N(c4ccc(Cl)cc4)C(=O)C23)c1 (stereo not drawn)	9

# Retrieved one by one from above:
item	canonical_smiles	Calb biofilm kill
22	Cc1ccc(SCCN2CCN(C)CCC2=O)cc1	-2
12	CCc1nc2ccccc2c(C(=O)Oc2ccc(C(=O)OC)cc2)c1C	19
41	CCc1ccccc1NC(=O)CN(c1ccc(OC)cc1OC)S(=O)(=O)c1ccccc1[N+](=O)[O-]	37

# Later entries.
item	canonical_smiles	Calb biofilm kill
49	CC(=O)c1cc(C#N)c(NCc2ccccc2)nc1C	18
50	O=C(NNC(=S)NC1CC2CCC1C2)c1ccc(Cl)cc1 (stereo not drawn)	15
51	COc1ccc(OCCCn2c(=O)oc3ccccc32)cc1	9
52	O=C(N/C(=C\c1ccc(F)cc1)C(=O)N1CCCCCC1)c1ccccc1	6
53	Cc1cc[n+](-c2[nH]c(=O)sc2/C=N/N=C(\[O-])c2ccccc2)cc1C	13
54	CCC(C)NC(=O)c1ccc([N+](=O)[O-])c(Cl)c1 (stereo not drawn)	10
55	Cc1cccc(CSc2nnc(-c3ccco3)o2)c1	-10
56	C=CCNC(=O)/C(C#N)=C/c1cn(-c2ccccc2)nc1-c1ccc(OC)c([N+](=O)[O-])c1	18
57	CC(=O)NCCn1c(SCC(=O)NCCc2ccc(S(N)(=O)=O)cc2)nc2ccccc2c1=O	8
58	CCCCOc1ccc(-c2ncc(N)cn2)cc1	26
59	CN(C)c1ccc(S(=O)(=O)N2CCCCC2)cc1NC(=O)COc1ccccc1F	28
60	O=C(COC(=O)C1CC1)Nc1ccccc1Sc1ccccc1	7
61	COc1ccc(NC(=S)NC(NC(=O)c2cccc(Cl)c2)C(Cl)(Cl)Cl)c([N+](=O)[O-])c1 (stereo not drawn)	13
62	COc1ccc(C2N(c3ccc(OC)cc3)C(=S)N3CCCN23)cc1 (stereo not drawn)	8
63	Cc1cccnc1NC(=O)c1cc2c(=O)oc3ccccc3c2s1	13
64	O=C(Nc1ccc(Cc2ccncc2)cc1)c1cccs1	13
65	COc1cc(/C=N/n2c(-c3cc(C)[nH]n3)n[nH]c2=S)cc(OC)c1OC	14
66	COc1ccc(CN(C(=O)c2ccco2)c2ccccc2)cc1	10
67	CC/C(Cc1ccccc1)=N/NC(=O)c1cccc(Br)c1	16
68	CC(c1nc2ccccc2c(=O)[nH]1)N(C)c1ccc2ccccc2c1 (stereo not drawn)	14
69	COc1ccc2oc(=Nc3cccc(F)c3)c(C(N)=O)cc2c1	9
70	CCc1cc(SC#N)ccc1N	11
71	O=C(NCc1cccnc1)c1cc2nc(-c3cccs3)cc(C(F)(F)Cl)n2n1	4
72	CC1(C)CC(=O)C2=C(C1)Nc1ccccc1[S@]2=O	27
73	CCOC(=O)c1ccc(NC(=S)N(CCCN2CCCC2)Cc2ccco2)cc1	8
74	Nc1nnc(SCC(=O)OCc2ccc(F)cc2)s1	19
75	CCOc1cc(/C=N/NC(=O)c2cccnc2)ccc1OCc1ccc(C(=O)OC)o1	4
76	CC(NC(=O)C(=O)NCCCn1ccnc1)c1ccccc1 (stereo not drawn)	21
77	C=CCn1c(-c2ccc(=O)n(Cc3ccccc3)c2)n[nH]c1=S	-7
78	CCS(=O)(=O)N1Cc2ccccc2CC1C(=O)Nc1ncc(C)s1 (stereo not drawn)	13
79	CCOc1ccc(-n2nnc3c(=O)n(CC(=O)NCc4ccco4)cnc32)cc1	25
80	Cc1sc(NC(=S)NC(=O)c2ccco2)c(C(N)=O)c1C	14
81	O=C(O)Cc1csc(-c2ccccc2)n1	12
82	COc1cc(OC)cc(/C(N)=N/O)c1	10
83	Cc1ncc(CO)c(/C=N/NC(=S)Nc2ccc(Cl)c(Cl)c2)c1O	13
84	Cn1c(=O)c2[nH]c(COc3ccc(C(C)(C)C)cc3)nc2n(C)c1=O	20
85	O=C(CN1C(=O)C2C3c4ccccc4C(c4ccccc43)C2C1=O)Nc1ccccc1C(=O)O (stereo not drawn)	10
86	CCOc1cccc2c1OC(c1cc(OC)c(OC)c(OC)c1)N1N=C(c3ccc(C)o3)CC21 (stereo not drawn)	11
87	CCCC(=O)N1CCN(Cc2ccc3c(c2)OCO3)CC1	17
88	O=C(NC1CCCCC1)C(c1ccco1)N(C(=O)C(F)(F)F)C1CC1 (stereo not drawn)	21
89	Cc1cccc(CCNC(=O)C2CCN(S(=O)(=O)c3ccccc3)CC2)c1	-1
90	N#C/C(=C\c1ccccc1[N+](=O)[O-])c1nc(C2CC2)cs1	10
91	COc1ccc(CN(Cc2cccn2C)S(=O)(=O)c2ccccc2)cc1	20
92	Cc1nc2c(C)cccn2c1/C(O)=C1\C(=O)C(=O)N(CCN(C)C)C1c1ccccc1 (stereo not drawn)	19
93	O=C(NNS(=O)(=O)c1ccc2ccccc2c1)c1cccnc1	4
94	C#CCOC(=O)c1csc2nnsc12	14
95	O=S(=O)(Nc1nc2ccccc2nc1Cl)c1ccc(Cl)cc1	17
96	Cc1ccc(OCCSc2nc(NC(C)C)nc(NC(C)C)n2)cc1	20
97	O=C(Cc1ccccc1)NNC(=O)Cc1ccccc1	13
98	CCOC(=O)Cc1csc(N(C)C)n1	18
99	Cc1cc(C)cc(N(C(=O)CNS(=O)(=O)c2ccccc2)C(C(=O)NCc2ccccc2)c2ccc(C)o2)c1 (stereo not drawn)	7
100	S=C(Nc1ccccc1)Nc1ccccc1-n1cccc1	15
101	Cn1ncc2c(c(SCc3ccc(Cl)cc3Cl)nn2C)c1=O	7
102	O=C(CNC(c1ccccc1)c1ccccc1)Nc1ccc(F)cc1	6
103	Cc1c(Cl)cccc1NC(=O)CCC(=O)N/N=C/c1ccc[nH]1	22
104	CCNC(=O)COc1ccc(OCc2ccccc2)cc1	-7
105	O=C(CN1CCCCC1)Nc1cc(Cl)ccc1Oc1ccccc1	10
106	O=C(Cc1ccc(-n2c(=O)c3sccc3n(CC(=O)Nc3ccccc3)c2=O)cc1)NCc1ccco1	-2
107	Cc1csc(NC(=O)CCc2c(C)nc3cc(-c4ccc(Cl)cc4)nn3c2C)n1	15
108	CN(C)c1ccc(Nc2nc(N)c([N+](=O)[O-])c(N3CCOCC3)n2)cc1	13

# Other results follow:
item	canonical_smiles	Calb biofilm kill
109	COc1ccc(-c2noc(CN3CCCCC3c3nccn3C)n2)cc1 (stereo not drawn)	26
110	CC(=O)Nc1ccccc1OCC(=O)NC(C)c1ccccc1 (stereo not drawn)	-15
111	Cc1cc(C(=O)CSc2nc(N)cc(N)n2)c(C)n1-c1cccc(F)c1	19
112	NC(=S)N/N=C/c1ccc([N+](=O)[O-])cc1	17
113	CC(=O)Nc1sc(-c2ccccc2)nc1-c1ccccc1	14
114	CC1(C)CC(=O)/C(=C(\O)Cc2ccccc2)C(=NCCCCCC(=O)O)C1	10
115	COc1cccc(/C=C/C(=O)c2cccc([N+](=O)[O-])c2)c1OC	2
116	COc1ccc(/C=N/NC(=O)c2ccc(=O)n(C)c2)cc1OC	15
117	CSc1cccc(NC(=O)/C=C/c2ccco2)c1	13
118	NS(=O)(=O)c1ccc(CNC(=O)/C=C/c2ccc(S(=O)(=O)N3CCOCC3)cc2)cc1	22
119	O=C1CC(C(=O)Nc2ccc(F)cc2)S/C(=N\N=C\c2ccco2)N1 (stereo not drawn)	21
120	Cc1ccccc1NC(=O)/C=C/c1ccc([N+](=O)[O-])s1	21
121	O=C(COc1cccnc1[N+](=O)[O-])N1CCN(C(=O)c2ccco2)CC1	13
122	Cc1cc(C)nc(SCc2ccc(C(=O)NN=C3C4CC5CC(C4)CC3C5)cc2)n1	14
123	CCOC(=O)C1(Cc2ccccc2)CCCN(Cc2ccncc2)C1 (stereo not drawn)	6
124	CCNC(=O)COC(=O)/C=C/c1cccc([N+](=O)[O-])c1	20
125	CCOC(=O)c1[nH]cnc1C(=O)NCc1ccccc1	6
126	COC(=O)CC1(C(=O)OC)Oc2ccc(Br)cc2C(=O)N1c1ccc(Br)cc1Cl (stereo not drawn)	28
127	CCN(C(=O)COC(=O)CNC(=O)c1ccc(C)s1)c1ccccc1	6
128	Cc1cccc(C)c1NC(=O)COC(=O)c1cc(=O)c2ccccc2o1	17
129	O=C(COc1ccccc1)NC(=S)Nc1cccc([N+](=O)[O-])c1	7

# Structural class, those above with a cyano group.
item	canonical_smiles	Calb biofilm kill
14	Cc1cc(C)n(-c2cc(Cl)cc(Cl)c2)c(=O)c1C#N	10
23	Cc1ccsc1C1C(C#N)=C(N)Oc2n[nH]c(C)c21 (stereo not drawn)	15
49	CC(=O)c1cc(C#N)c(NCc2ccccc2)nc1C	18
56	C=CCNC(=O)/C(C#N)=C/c1cn(-c2ccccc2)nc1-c1ccc(OC)c([N+](=O)[O-])c1	18
70	CCc1cc(SC#N)ccc1N	11
90	N#C/C(=C\c1ccccc1[N+](=O)[O-])c1nc(C2CC2)cs1	10

# Assay outcomes (PubChem)

# Some of the compounds tested; the hit share may differ from the screen's.
